Compound activity: PubChem, several laboratories
Bead autofluor – flagged as autofluorescent in microsphere protease counterscreen; compound autofluorescence counterscreen, microsphere flow cytometry; hits give high values; fluorescence intensity (no concentration beside the values); 3.1% of 360,000 active; AID 624483;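 active = at least 3 SD above the mean of all compounds, about 16000 in these data; inconclusive = too few beads counted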;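 note: 100 nL of 1 mM stock went into each well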
RN4220 kill – growth inhibition of S. aureus RN4220, primary screen, OD600 | 16 h | inhibition, % (no concentration beside the values) | 0.33% of 330,000 active | AID 1259311, 2017;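 active = z-score of -3 or lower and OD600 up to 0.18 on both plates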;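 note: plate controls were untreated cells for no effect and reference antibiotic for full effect; stock transfer was 100 nL into about 80 µL; one replicate is shown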
BJeLR lethal – MLPCN primary cell-based screen for lethality selective to Ras in HRASV12 cells; BJeLR (HRASV12) viability, CellTiter-Glo ATP luminescence, 48 h; reference of the scale not given here; inhibition, % (no concentration beside the values); 0.17% of 300,000 active; AID 1554, 2009;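 active = replicate mean above 50%; inconclusive = above 50% but judged a plate artefact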;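 note: 50 nL library stock added to about 25 µL; numbers are from one replicate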
Mtb hypoxia rep – PubChem AID 1159583 | M. tuberculosis hypoxia-regulated fluorescent reporter, fluorescence | fluorescence inhibition, % (concentration not given with the values) | 0.1% of 300,000 active;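 active = 35 to 45% if threefold the growth effect, above 45% if 1.5-fold the growth effect; inactive = the rest, general growth blockers included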;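 note: wells of about 50 µL received 100 nL stock; 0% = vehicle wells and 100% = reference inhibitor wells; whole bacteria with a GFP reporter of the hypoxia response; strong numbers were not always called active; many hits fall short of the cut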
PrP 5UTR inh – inhibition of PrP 5' UTR reporter expression | inhibition, % (concentration not given with the values) | cell-based PrP 5' UTR mRNA reporter, plate reader | 0.35% of 340,000 active | AID 488862, 2010;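 active = every replicate at 50% or more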;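 note: 0 = median of the neutral control wells; tested in H4 reporter cells; numbers are from one replicate; inactives centre near -14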
Sa ugtP lethal – growth inhibition of ugtP-null S. aureus, primary screen, RN4220 ugtP deletion, OD600; 16 h; some inactives read as strong as hits; growth inhibition, % (concentration not given with the values); 0.54% of 330,000 active; AID 1259309, 2017;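 active = z-score under -3 and OD600 up to 0.15 on both plates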;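 note: plate controls were untreated wells for no effect and antibiotic for full effect; wells of about 80 µL received 100 nL stock; the first replicate is given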
Mtb hypoxia rep growth – second read-out of Mtb hypoxia rep, no call of its own (marks repeat the call); growth inhibition, %; measured here: M. tuberculosis growth (absorbance);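 0% = vehicle and 100% = reference antibiotic; read after six days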
* = called active by the depositor; ? = inconclusive; / = no result given.

SMILES	Bead autofluor	RN4220 kill	BJeLR lethal	Mtb hypoxia rep	Mtb hypoxia rep growth	PrP 5UTR inh	Sa ugtP lethal
CCOC(=O)c1nc(Nc2ccccc2)c2ccccc2n1	11837	-1.4	-11	1	0	/	-18
Cc1[nH]n(-c2ccccc2)c(=O)c1C=NCc1ccncc1	4409	3.8	19	10	6	-7	-3
CCOC(=O)c1ccc(NC(=O)C(=O)NCC2(c3ccc(OC)cc3)CCOCC2)cc1	4019	-0.6	7	-7	-5	-24	-2
CN(C)S(=O)(=O)c1cc(NC(=O)CNCc2ccccc2)ccc1Cl	5895	3.9	-7	0	-4	-14	1
O=C(NN=Cc1ccccc1[N+](=O)[O-])c1cnccn1	/	5.2	/	11	-7	/	4
O=C1c2ccccc2C(=O)N1CCN1CCCCC1	2682	0.9	-8	/	/	-26	4
CCc1ccc(OCC(=O)N/N=C(\C)c2ccc(OC(F)F)cc2)cc1	2376	/	0	/	/	-6	/
CC(=NNC(=O)CSc1nc2ccccc2n1C)c1ccncc1	/	0.0	/	-8	1	/	7
CC(=O)c1ccc(S(=O)(=O)N2CCN(c3nn(C)c(=O)n(C)c3=O)CC2)cc1	?	3.2	/	5	0	-16	5
CC(=CC(=O)c1ccc(F)cc1)NCc1ccc2c(c1)OCO2	/	0.5	/	13	9	/	9
Cc1cc(=O)cc(C)[nH]1	7838	6.6	-9	9	3	-18	2
CCc1nnc(NC(=O)CSc2nc3cccnc3n2Cc2ccccc2)s1	4462	-0.5	1	/	/	-18	-2

A different layout for some results above.
Molecule | Bead autofluor | RN4220 kill | BJeLR lethal | Mtb hypoxia rep | Mtb hypoxia rep growth | PrP 5UTR inh | Sa ugtP lethal
O=C(NN=Cc1ccccc1[N+](=O)[O-])c1cnccn1 | / | 5.2 | / | 11 | -7 | / | 4
O=C1c2ccccc2C(=O)N1CCN1CCCCC1 | 2682 | 0.9 | -8 | / | / | -26 | 4

Next section
SMILES	Bead autofluor	RN4220 kill	BJeLR lethal	Mtb hypoxia rep	Mtb hypoxia rep growth	PrP 5UTR inh	Sa ugtP lethal
CCNC(=S)NS(=O)(=O)c1ccccc1	2898	2.5	-7	7	5	-8	-1
O=C(c1ccc(S(=O)(=O)NCc2ccco2)cc1)N1CCCC(C(F)(F)F)C1 (stereo not drawn)	5942	2.8	6	1	3	-16	3
CN(CCO)C(=O)C(c1ccccc1)c1ccccc1	4122	2.8	-8	-4	2	-5	7
CC1(C)CC(=O)C2=C(C1)N1CCCCC1CC2=O (stereo not drawn)	6426	4.3	6	7	12	-5	3
C[C@@H](C(=O)Nc1nccs1)N1C(=O)C2CC=CCC2C1=O (stereo partly drawn)	3580	6.2	/	10	7	-2	4
Cc1ccc(C)c(N(CC(=O)Nc2ccccc2C(=O)NCc2ccco2)S(=O)(=O)c2ccccc2)c1	2061	0.6	-9	11	7	-23	-9
Cc1ccc(OCC(=O)NNC(=S)NCc2ccccc2)cc1	2040	3.4	-2	-19	-5	-19	-12
O=C(O)C1CCCCN1S(=O)(=O)c1ccc(Cl)s1 (stereo not drawn)	3988	2.9	-4	/	/	0	5
COC(=O)c1nnn(CC(=O)Nc2ccc(C)c(F)c2)c1C(=O)OC	?	1.7	-7	5	1	-27	5
Cc1ccc(C(=O)CSc2nnc(-c3ccco3)n2Cc2ccccc2)cc1	3318	-0.9	0	16	19	-62	-20
Cc1ccc(N(C)S(=O)(=O)c2cccc(C(=O)N3CCN(Cc4ccccc4)CC3)c2)cc1	/	2.5	/	-1	2	22	-4
Cc1cc(=O)oc2cc(OCC(=O)Nc3ccccc3C(N)=O)c(Cl)cc12	5283	2.3	5	-23	6	-1	-4
CS(=O)(=O)N(CC(=O)Nc1ccc2c(c1)OCO2)c1ccc(Cl)cc1	4012	5.0	1	8	11	-23	6
CC(=O)Oc1ccc(C=NNC(=S)Nc2ccccc2)cc1	/	10	/	8	1	/	-8
Cc1cc(C)nc(CCNC(=O)CC2C(=O)NCCN2Cc2ccc(F)cc2Cl)n1 (stereo not drawn)	5187	0.0	-4	8	0	-17	0
CC(C)C(NS(=O)(=O)c1ccc2c(c1)C(C)(C)C(=O)N2C)C(=O)NCc1ccccc1Cl (stereo not drawn)	6047	1.9	-11	2	8	-37	7
Cc1sc2ncnc(N3CCN(c4ncccn4)CC3)c2c1C	3290	3.2	10	9	8	-5	14
CC1=NCCN1S(=O)(=O)c1cccc([N+](=O)[O-])c1	3879	3.0	-1	4	14	-44	-6
Cc1c(CC(=O)NCC(=O)NCC(=O)O)c(=O)oc2cc3oc4c(c3cc12)CCCC4	2904	2.4	-4	1	2	-18	15
O=C(Nc1ccc2c(c1)OCCO2)c1cnc2n(c1=O)CCS2	5621	-1.3	-5	4	4	-68	8
COc1cccc(NC(=O)c2cc3c(=O)n4ccccc4nc3n(CC(C)C)c2=N)c1	4096	6.3	-6	1	-3	6	4
COc1ccc(NS(=O)(=O)c2ccc3c(c2)N(C(C)=O)CC(C)S3)c(OC)c1 (stereo not drawn)	4022	-1.8	-4	-5	-9	-2	-4
CCN(CC(=O)NCc1ccc(Cl)cc1)C(=O)CCC(=O)c1ccc(F)cc1	4888	0.2	3	-1	7	-20	-1
COc1ccc(NCC(=O)NN=Cc2cc([N+](=O)[O-])ccc2N2CCCC2)cc1	/	1.6	/	0	-4	/	3
Clc1cccc(-c2ccc(CNCc3ccccn3)o2)c1	3781	-0.2	-2	10	-1	-14	-1
CCOC(=O)C1(Cc2ccccc2)CCCN(CCCn2cccn2)C1 (stereo not drawn)	6264	3.7	1	2	-3	-12	3
COc1ccc(CCN2C(=O)CC(N3CCC(C(N)=O)CC3)C2=O)cc1OC (stereo not drawn)	4177	3.2	-4	7	6	-22	4
COc1ccccc1-c1noc2ncnc(Nc3cccc(C)c3)c12	3936	6.0	-22	14	7	-25	6
CCCn1ncc(CN2CCC(n3nccc3NC(=O)CCc3ccccc3)CC2)c1C	5244	3.1	3	-1	-5	4	3
CC(=O)Nc1cccc(NC(=O)c2cccc3cccnc23)c1	7314	4.0	3	11	6	-41	-8
Cc1c(NC(=O)CN2C(=O)NC(C)(c3ccccc3Cl)C2=O)c(=O)n(-c2ccccc2)n1C (stereo not drawn)	2152	3.3	9	11	-3	-22	3
Cc1cc(NC(=O)Cn2c(=O)oc3ccccc32)no1	4069	1.4	/	7	4	-12	0
O=C(CCNC(=O)c1ccc(Br)cc1)OCc1ccccc1Cl	?	-0.4	1	-11	-6	-4	5
CC1CCCC(C)N1C(=O)COC(=O)c1ccc(S(=O)(=O)N(C)c2ccccc2)cc1 (stereo not drawn)	2954	2.3	/	-3	1	-17	-2
N#C/C(=C\c1cccc(O)c1)C(=O)N1CCCCC1	4481	4.1	-5	1	-1	-4	-3
Nn1c(COc2ccccc2)nnc1SC(F)F	23749*	4.0	21	4	9	-17	3

Among those listed so far, these have a nitro group on carbon:
SMILES	Bead autofluor	RN4220 kill	BJeLR lethal	Mtb hypoxia rep	Mtb hypoxia rep growth	PrP 5UTR inh	Sa ugtP lethal
O=C(NN=Cc1ccccc1[N+](=O)[O-])c1cnccn1	/	5.2	/	11	-7	/	4
CC1=NCCN1S(=O)(=O)c1cccc([N+](=O)[O-])c1	3879	3.0	-1	4	14	-44	-6
COc1ccc(NCC(=O)NN=Cc2cc([N+](=O)[O-])ccc2N2CCCC2)cc1	/	1.6	/	0	-4	/	3

Additional results.
SMILES	Bead autofluor	RN4220 kill	BJeLR lethal	Mtb hypoxia rep	Mtb hypoxia rep growth	PrP 5UTR inh	Sa ugtP lethal
COc1cc(OC)cc(C(=O)Nc2cccc3ccccc23)c1	3968	3.2	8	21	10	-43	0
CCC(C)Sc1nc(C)nc2c1c(=O)n(C)c(=O)n2C (stereo not drawn)	5450	-10	2	7	1	-34	-4
COc1ccccc1-c1nnc(SC(C)C(=O)O)n1-c1ccccc1 (stereo not drawn)	4581	6.2	-3	6	10	-11	16
COc1cc(C(=O)OCC(=O)Nc2ccccc2C(=O)NC2CC2)c([N+](=O)[O-])cc1OC	2879	0.2	/	0	-2	-2	-3
COc1ccccc1NC(=O)CN(C)S(=O)(=O)c1cc(C)ccc1OC	16552*	5.1	2	6	0	-8	7
O=C(Nc1ccc(S(=O)(=O)N2CCOCC2)cc1)c1ccc2ncsc2c1	4803	2.9	1	9	15	-19	10
Cc1cc(C)c2c(=O)[nH]c(SCC(=O)c3ccc(F)c(C)c3)nc2n1	3283	3.7	2	1	-1	-6	4
COc1ccc(C2C(C(=O)c3ccco3)=C(O)C(=O)N2Cc2cccnc2)cc1OC (stereo not drawn)	9223	2.5	-3	8	5	-50	5
COC(=O)NN=C(C)c1ccc2ccccc2c1OC(F)F	/	4.1	/	-5	0	/	9
CC(=NNC(=O)Cc1ccc(F)cc1)c1ccc(O)cc1	/	-1.9	/	7	3	/	-1
Cc1ccccc1NC(=O)C(=O)NN=Cc1cccc(Br)c1	/	0.5	/	-14	-4	/	-6
COc1ccccc1CC(=O)NC12CC3CC(CC(C3)C1)C2	4149	-3.7	-5	6	9	-25	-1
Cc1nc2sc3c(O)cc(=O)[nH]c3c2c(C)c1C	3500	-26	-3	26	-20	-22	-2
CCn1c(SCC(N)=O)nnc1C(C)C	4801	7.4	-1	1	3	-6	1
Cc1ccc(NC(=O)c2cccc(Cl)c2)nc1	2440	-2.4	-5	/	/	-47	6
N#CC(Cc1ccc(OC(F)F)cc1)c1nc2ccccc2[nH]1 (stereo not drawn)	2500	-0.1	-14	1	11	-42	4
COc1ccc(S(=O)(=O)NCCN2CCOCC2)c(C)c1C	3948	/	3	/	/	-40	/
CC(C)(C)NC(=O)CN1C(=O)/C(=C/c2ccccc2)SC1=S	5090	9.7	5	-3	5	-22	5
CC(=O)CCC(=O)NCCc1ccccc1F	3274	-2.4	4	8	19	85*	-4
Cc1nn(-c2ccccc2)c(N2CCCCC2)c1C=NO	/	1.9	/	17	8	/	15
O=C(CN1CCN(c2ccccn2)CC1)Nc1ccc(F)cc1	3141	-2.5	1	-3	5	-24	-5
Cc1ccc(C)c(NS(=O)(=O)c2c(C)nn(C)c2C)c1	3603	1.3	2	/	/	-11	-1
CNC(=O)Nc1ccc(C2SCCS2)cc1	5783	-0.5	-4	-9	8	-20	6
O=C(C1CCCN(S(=O)(=O)c2cccnc2)C1)N1CCn2c1nc1ccccc12 (stereo not drawn)	4387	-0.7	-8	/	/	6	13
CN1CCN(Cc2c(O)ccc3occ(C(=O)c4ccccc4)c23)CC1	3987	2.3	-4	14	13	1	10
O=C(NCC(O)c1ccccc1)c1cccc(S(=O)(=O)N2CCOCC2)c1 (stereo not drawn)	2625	3.7	1	/	/	-11	6
O=C(O)c1ccc(C=NNC(=O)c2ccc3c(c2)OCCO3)cc1	/	1.7	/	10	11	/	5
CC(C)n1nc(C(=O)Nc2ccc(-n3cnnn3)cc2)c2ccccc2c1=O	3484	1.3	/	2	9	-27	2
CCOC(=O)C1=C(C)N(CCCC(=O)O)C(=O)NC1c1ccccc1 (stereo not drawn)	3206	8.7	3	12	10	-12	0
CC(Cc1ccccc1)C(=O)N1CCN(C)CC1 (stereo not drawn)	3998	4.3	3	13	14	-13	-9
O=C(NC1CCC1)C1CCC(=O)N(Cc2cccc(F)c2)C1 (stereo not drawn)	?	0.5	0	1	1	-7	2
Nc1nonc1C(=NO)N1CCCC1	/	5.3	/	6	15	/	-2
Cc1cc(C(C)(C)C)cc(C)c1COC(=O)C1CCC(=O)N1 (stereo not drawn)	4460	7.2	-6	/	/	-4	8
Cc1cc([N+](=O)[O-])c(C)cc1-c1ccc(/C=N/n2cnnc2)o1	3570	/	6	/	/	-15	/
CCc1nc2ccccc2c(C(=O)Nc2ccc(C)cc2)c1C	2889	2.5	0	4	-8	3	11
CC1=CCC(C(=O)O)C(C(=O)Nc2nc3ccc(S(C)(=O)=O)cc3s2)C1 (stereo not drawn)	4429	7.0	1	15	8	-8	11
CN(C(=O)COc1ccc(Cl)cc1Cl)c1nnc(C23CC4CC(CC(C4)C2)C3)s1	6145	-6.3	2	5	4	-21	-22
COc1cc(C=C(NC(=O)c2ccccc2Cl)C(=O)O)cc(OC)c1OC	/	8.1	/	8	3	/	3
O=C(O)C1CCN(C(=O)c2ccccc2N2C(=O)[C@@H]3Cc4c([nH]c5ccccc45)C(c4cccc(Cl)c4)N3C2=O)CC1 (stereo partly drawn)	5460	9.4	-3	/	/	-31	-5
O=C1C(Oc2ccc(Cl)cc2)C(c2ccc3c(c2)OCO3)N1CC1CCCO1 (stereo not drawn)	2137	1.2	10	0	1	-10	4
